From PubChem
GALR2 ag: GALR2 receptor agonists, primary screen, cell-based | Galanin receptor type 2 (Homo sapiens), O43603 | activation, %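 (tested at 5 µM)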 | 140,000 tested, 0.48% active | GALR2-expressing cells, agonist activation read-out;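 active means above mean plus 3 SD of all compounds, about 5% in these data, not always enough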;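 further: 0% = vehicle buffer wells and 100% = reference agonist at full effect; tested in CHO reporter cells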
Target sequence (O43603 whole entry, looked up): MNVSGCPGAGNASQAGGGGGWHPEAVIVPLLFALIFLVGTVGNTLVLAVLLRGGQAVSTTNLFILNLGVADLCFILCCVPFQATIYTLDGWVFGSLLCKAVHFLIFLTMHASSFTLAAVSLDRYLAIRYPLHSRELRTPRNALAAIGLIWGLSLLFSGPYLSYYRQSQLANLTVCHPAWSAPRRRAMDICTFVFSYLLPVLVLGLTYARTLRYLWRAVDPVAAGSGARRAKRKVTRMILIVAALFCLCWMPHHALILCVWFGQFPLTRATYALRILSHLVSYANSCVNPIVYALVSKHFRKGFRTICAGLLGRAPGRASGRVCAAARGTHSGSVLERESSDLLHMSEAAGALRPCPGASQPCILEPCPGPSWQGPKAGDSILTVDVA
PKD1 inh: inhibitors of human PKD1 kinase, biochemical, fluorescence polarization; Serine/threonine-protein kinase D1 (Homo sapiens), Q15139; PKD1 kinase fluorescence polarization assay; inhibition, %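 (about 10 µM by stock and volumes)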; 200,000 tested, 0.056% active;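 active means inhibition of 50% or more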;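 further: controls were vehicle for no effect and a reference inhibitor for full effect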
RGS16-Gao HTS: modulators of RGS16 binding to Galphao, primary screen, biochemical, human proteins, multiplexed bead flow cytometry; 220,000 tested, 0.38% active; AID 1441, 2008; binding response (% of control), % at 10 µM; bead-based flow cytometry RGS16-Galphao binding, fluorescence; actives lie on both sides;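 active means below 25% or above 175%, edge rows of some plates excepted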;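 further: Galphao activated by GDP with aluminum fluoride before binding; 100% = wells without compound and 0% = beads without RGS; some results beyond the cut were filed as inactive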
Target sequence (O15492 whole entry, looked up): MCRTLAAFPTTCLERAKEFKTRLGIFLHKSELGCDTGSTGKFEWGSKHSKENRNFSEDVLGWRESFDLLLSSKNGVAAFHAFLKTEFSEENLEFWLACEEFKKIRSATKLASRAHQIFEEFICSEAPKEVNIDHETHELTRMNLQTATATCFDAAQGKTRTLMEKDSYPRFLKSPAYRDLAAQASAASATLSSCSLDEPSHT
Target sequence (P09471 whole entry, looked up): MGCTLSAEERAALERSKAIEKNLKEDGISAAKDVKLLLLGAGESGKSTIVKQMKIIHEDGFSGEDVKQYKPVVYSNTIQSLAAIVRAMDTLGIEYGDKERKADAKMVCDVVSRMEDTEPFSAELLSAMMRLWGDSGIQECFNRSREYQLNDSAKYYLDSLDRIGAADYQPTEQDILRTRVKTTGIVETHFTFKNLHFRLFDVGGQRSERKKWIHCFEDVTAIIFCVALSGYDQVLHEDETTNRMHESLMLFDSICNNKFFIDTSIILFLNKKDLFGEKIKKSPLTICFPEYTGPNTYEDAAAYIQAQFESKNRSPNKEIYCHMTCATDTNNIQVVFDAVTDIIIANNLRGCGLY
HSV replic up: enhancers of HSV replication in host cells, fold increase, host cell viability; HSV replication augmentation in cells; maximum fold increase; 220,000 tested, 0.005% active; AID 1956, 2009;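 active means peak rise of 1.5-fold or more in the series; tested in PC3 cells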;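 further: first round at 10 µM; read as green reporter fluorescence; hits show the peak of a series up to 25 µM; 1 = signal of infected wells without compound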
INS promoter inh: inhibitors of insulin promoter-driven GFP, primary screen, imaging, TRM-6 cells (human fetal islet line), eGFP reporter, cell count | AID 1273, 2008 | 130,000 tested, 0.9% active | inhibition, % at 2 µM | reporter expression induced with tamoxifen;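 active means inhibition above the mean plus 3 SD, with well images judged a real hit on visual review, cut at about 60% in these data, passing the limit was not always enough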
INS promoter inh cell count: second read-out of INS promoter inh, no call of its own (marks repeat the call); normalized cell count, %; measured here: cell count, toxicity; reference of the scale not given here;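 cells exposed to compound for 48 h; stained nuclei by imaging scaled within each plate; lower means fewer cells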
HSV replic up primary fold: second read-out of HSV replic up, no call of its own (marks repeat the call); fold increase; compound at 10 µM; measured here: primary screen fold increase 10 uM; tested in PC3 cells;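 GFP signal in the first replicate; 1 = infected wells without compound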
Active calls of the source: *. The order is random; 1.3% or so of the library scored in one or more.

`COc1ccc(N2CCN(C(c3ccc4ncccc4c3)c3nnnn3C(C)C)CC2)cc1` (stereo not given) gave RGS16-Gao HTS 105, HSV replic up inactive and HSV replic up primary fold 0.96.
`CCN(CC)C(=O)C1=C(C)Nc2nnnn2C1c1cccnc1` (stereo not given) gave GALR2 ag -1.5, PKD1 inh -4, RGS16-Gao HTS 65, HSV replic up inactive, INS promoter inh -62, INS promoter inh cell count 80 and HSV replic up primary fold 0.97.
Screening O=C(NCCC1=CCCCC1)c1ccc(=O)oc1 returned GALR2 ag -0.2, PKD1 inh 2, RGS16-Gao HTS 112, HSV replic up inactive and HSV replic up primary fold 0.88.
Screening Cc1ccc(C(=O)Nc2c(C)n(C)n(-c3ccccc3)c2=O)cc1 returned PKD1 inh 11, RGS16-Gao HTS 109, HSV replic up inactive, INS promoter inh -93, INS promoter inh cell count 82 and HSV replic up primary fold 0.97.
Screening COc1cc(OC)cc(C(=O)N[C@H](C(=O)OCC(=O)Nc2ccc(F)c(F)c2F)C(C)C)c1 returned PKD1 inh 2, RGS16-Gao HTS 102, HSV replic up inactive and HSV replic up primary fold 0.97.
For O=C(NCCCn1ccnc1)C(=O)NCC1OCCN1S(=O)(=O)c1ccc2c(c1)OCCO2 (stereo not given) the results were RGS16-Gao HTS 101, HSV replic up inactive and HSV replic up primary fold 1.
Screening C=CCN1C(=O)CSc2ccc(C(=O)NCc3cccs3)cc21 returned PKD1 inh 2, RGS16-Gao HTS 109, HSV replic up inactive, INS promoter inh -11, INS promoter inh cell count 66 and HSV replic up primary fold 0.98.
For CC(C)c1nc(N2CCOCC2)c(C#N)c2c1CCC2 the results were GALR2 ag -3.7, PKD1 inh 9, RGS16-Gao HTS 100, HSV replic up inactive, INS promoter inh 43, INS promoter inh cell count 134 and HSV replic up primary fold 0.88.
`COc1ccc(NC(=O)c2oc3ccc(S(=O)(=O)N4CCC5(CC4)OCCO5)cc3c2C)cc1` gave GALR2 ag -0.5, PKD1 inh 12, RGS16-Gao HTS 145, HSV replic up inactive and HSV replic up primary fold 0.81.
`Cc1ccc(NC(=O)C2CCN(S(=O)(=O)c3c(C)noc3C)CC2)cc1C` gave PKD1 inh -2, RGS16-Gao HTS 96, HSV replic up inactive, INS promoter inh 12, INS promoter inh cell count 100 and HSV replic up primary fold 0.91.

The list goes on, starting with the last 2 of the part before.
`COc1ccc(NC(=O)c2oc3ccc(S(=O)(=O)N4CCC5(CC4)OCCO5)cc3c2C)cc1` gave GALR2 ag -0.5, PKD1 inh 12, RGS16-Gao HTS 145, HSV replic up inactive and HSV replic up primary fold 0.81.
`Cc1ccc(NC(=O)C2CCN(S(=O)(=O)c3c(C)noc3C)CC2)cc1C` gave PKD1 inh -2, RGS16-Gao HTS 96, HSV replic up inactive, INS promoter inh 12, INS promoter inh cell count 100 and HSV replic up primary fold 0.91.
For Cc1cc2n(n1)C(c1ccccc1)Nc1ccccc1-2 (stereo not given) the results were GALR2 ag -1.2, PKD1 inh 2, RGS16-Gao HTS 107, HSV replic up inactive, INS promoter inh 18, INS promoter inh cell count 92 and HSV replic up primary fold 0.79.
Screening CCCc1cc(=O)[nH]c(SCC(=O)N2CCN(c3ccc(F)cc3)CC2)n1 returned GALR2 ag -2.4, PKD1 inh 0, RGS16-Gao HTS 107, HSV replic up inactive, INS promoter inh 50, INS promoter inh cell count 130 and HSV replic up primary fold 1.
O=C(Cc1cccs1)N/N=C/C=C\c1ccco1 was read as GALR2 ag -0.2, PKD1 inh -6, RGS16-Gao HTS 96, HSV replic up inactive, INS promoter inh 17, INS promoter inh cell count 118 and HSV replic up primary fold 1.1.
For O=C(N/N=C\c1ccc(CNS(=O)(=O)c2ccc(Cl)cc2)o1)C(=O)Nc1ccc(Oc2ccccc2)cc1 the results were GALR2 ag 0.0, PKD1 inh 2, RGS16-Gao HTS 101, HSV replic up inactive and HSV replic up primary fold 0.75.
Screening Cc1cccc(NC(=O)CNC(=O)COc2cc(F)ccc2[N+](=O)[O-])c1C returned PKD1 inh 2, RGS16-Gao HTS 103, HSV replic up inactive and HSV replic up primary fold 1.
Screening CC1(C)CC(=O)c2cnn(-c3nc4ccccc4[nH]3)c2C1 returned GALR2 ag -1.6, PKD1 inh 8, RGS16-Gao HTS 94, HSV replic up inactive and HSV replic up primary fold 0.82.
`O=C1CCCN1CCCNC(=S)Nc1ccccc1` gave RGS16-Gao HTS 103, HSV replic up inactive and HSV replic up primary fold 1.1.
For CN(CC(=O)NCCC1=CCCCC1)S(=O)(=O)c1ccc2c(c1)CCC(=O)N2 the results were GALR2 ag -0.9, PKD1 inh -2, RGS16-Gao HTS 105, HSV replic up inactive and HSV replic up primary fold 1.
`O=C(CNC(=O)c1ccc(F)cc1)N/N=C/c1ccc(O)c([N+](=O)[O-])c1` gave GALR2 ag 0.5, PKD1 inh -4, RGS16-Gao HTS 109, HSV replic up inactive and HSV replic up primary fold 1.
`Cc1cn(S(=O)(=O)c2ccc(Br)cc2)cn1` gave GALR2 ag -1.6, PKD1 inh -4, RGS16-Gao HTS 97, HSV replic up inactive, INS promoter inh 40, INS promoter inh cell count 125 and HSV replic up primary fold 0.88.
For C=CCC1(CC=C)CCCN1C(=O)CC1C(=O)NCCN1Cc1cccc(OC)c1 (stereo not given) the results were PKD1 inh -5, RGS16-Gao HTS 102, HSV replic up inactive and HSV replic up primary fold 0.97.
Screening CC1(C)Cc2ccccc2-c2nnc(-c3cccc(O)c3)n21 returned GALR2 ag -2.8, PKD1 inh -1, RGS16-Gao HTS 106, HSV replic up inactive, INS promoter inh -24, INS promoter inh cell count 123 and HSV replic up primary fold 0.88.
Screening Cc1ccc(C)c(NC(=O)CS(=O)(=O)c2cn(C)c3ccccc23)c1 returned GALR2 ag -3.8, PKD1 inh -12, RGS16-Gao HTS 108, HSV replic up inactive, INS promoter inh 40, INS promoter inh cell count 182 and HSV replic up primary fold 0.81.
Cn1c(=O)n(CC(=O)OCc2ccccc2)c(=O)c2c1nc1n2CCCN1C1CCCCC1 was read as GALR2 ag -0.2, PKD1 inh -18, HSV replic up inactive, INS promoter inh 0, INS promoter inh cell count 81 and HSV replic up primary fold 0.85.
COc1cc(/C=N/NC(=O)CSc2nc3ccccc3n2C)cc(OC)c1OC was read as GALR2 ag 0.1, PKD1 inh -4, RGS16-Gao HTS 97, HSV replic up inactive, INS promoter inh -25, INS promoter inh cell count 41 and HSV replic up primary fold 0.97.
CCCCn1c(CN2CCN(c3cccc(Cl)c3)CC2)nc2c1c(=O)[nH]c(=O)n2C was read as GALR2 ag -0.6, PKD1 inh 0, RGS16-Gao HTS 103, INS promoter inh -44 and INS promoter inh cell count 37.
For COc1ccc(C(CCN(Cc2ccc(OC)c(OC)c2)C(=O)CCl)c2ccccc2)cc1 (stereo not given) the results were GALR2 ag 0.5, PKD1 inh 0, RGS16-Gao HTS 104, HSV replic up inactive and HSV replic up primary fold 0.96.
Screening CC(/C=C/c1cccs1)=C\C(=O)O returned GALR2 ag -1.8, PKD1 inh -3, RGS16-Gao HTS 95, HSV replic up inactive, INS promoter inh 27, INS promoter inh cell count 66 and HSV replic up primary fold 0.92.
Screening O=C(C1=C(O)C(=O)N(Cc2ccco2)C1c1ccccc1)c1cccs1 (stereo not given) returned GALR2 ag -1.4, PKD1 inh -2, RGS16-Gao HTS 100, HSV replic up inactive, INS promoter inh 33, INS promoter inh cell count 79 and HSV replic up primary fold 0.97.
For CC(C)(C)c1ccc(/C=N/NC(=S)NC2CCCCC2)cc1 the results were GALR2 ag 0.7, PKD1 inh -4, RGS16-Gao HTS 99, HSV replic up inactive, INS promoter inh -421, INS promoter inh cell count 115 and HSV replic up primary fold 1.
Screening Cc1cccc(C(C)(C)C)c1OCCCCN1CCCC1 returned GALR2 ag 0.5, PKD1 inh 0, RGS16-Gao HTS 109, HSV replic up inactive, INS promoter inh -53, INS promoter inh cell count 79 and HSV replic up primary fold 1.
COc1cc(OC)c(N(C)S(=O)(=O)c2cccc(C(=O)Nc3nnc(C4CC4)s3)c2)cc1Cl was read as RGS16-Gao HTS 100, HSV replic up inactive and HSV replic up primary fold 0.71.
COC(=O)C(NNc1ccccc1)(NC(=O)c1ccc(F)cc1)C(F)(F)F (stereo not given) was read as GALR2 ag -1.8, PKD1 inh -3, RGS16-Gao HTS 100, HSV replic up inactive and HSV replic up primary fold 0.72.
Screening COc1ccc(S(=O)(=O)N(CCCN2CCOCC2)Cc2ccc(OC)c(OC)c2)cc1 returned GALR2 ag -3.0, PKD1 inh 3, RGS16-Gao HTS 105, HSV replic up inactive, INS promoter inh 50, INS promoter inh cell count 174 and HSV replic up primary fold 0.96.
For Cc1ccccc1NC(=O)CC1SCCNC1=O (stereo not given) the results were GALR2 ag -2.1, PKD1 inh -1, RGS16-Gao HTS 127, HSV replic up inactive, INS promoter inh -56, INS promoter inh cell count 38 and HSV replic up primary fold 0.91.
Screening O=c1c2ccccc2nnn1Cc1ccccc1 returned RGS16-Gao HTS 94, HSV replic up inactive and HSV replic up primary fold 1.
O=C(Cn1cncn1)N/N=C/c1cccnc1 was read as RGS16-Gao HTS 101, HSV replic up inactive and HSV replic up primary fold 0.9.
CC(=O)c1sc(NC(=O)c2cc(=O)c3ccccc3o2)nc1C was read as PKD1 inh -2, RGS16-Gao HTS 100, HSV replic up inactive and HSV replic up primary fold 0.94.
For C/C=C/c1ccc(OCCOc2ccc(C=O)cc2)c(OC)c1 the results were GALR2 ag -0.7, PKD1 inh -2, RGS16-Gao HTS 151, HSV replic up inactive, INS promoter inh -34, INS promoter inh cell count 89 and HSV replic up primary fold 1.
Screening CCOCc1nnc(NC(=O)c2c(OC)cccc2OC)s1 returned GALR2 ag -0.7, PKD1 inh -7, RGS16-Gao HTS 94, HSV replic up inactive, INS promoter inh 32, INS promoter inh cell count 71 and HSV replic up primary fold 1.1.
For O=S(=O)(NCc1ccc2c(c1)OCO2)c1ccc2oc3ccccc3c2c1 the results were GALR2 ag -2.1, PKD1 inh 3, HSV replic up inactive, INS promoter inh -169, INS promoter inh cell count 82 and HSV replic up primary fold 0.79.
For CCOC(=O)c1c(NCC2CCCO2)c2ccccc2[nH]c1=O (stereo not given) the results were GALR2 ag -1.0, PKD1 inh 10, RGS16-Gao HTS 76, HSV replic up inactive, INS promoter inh 31, INS promoter inh cell count 70 and HSV replic up primary fold 1.
Screening COCCNC(=S)NNc1ccc(Cl)c(C(=O)O)c1 returned RGS16-Gao HTS 95, HSV replic up inactive and HSV replic up primary fold 0.99.
For O=C1c2ccccc2NC(c2cn[nH]c2-c2ccccc2)N1O (stereo not given) the results were GALR2 ag -1.6, PKD1 inh 12, RGS16-Gao HTS 108, HSV replic up inactive, INS promoter inh 13, INS promoter inh cell count 114 and HSV replic up primary fold 0.93.
`COCCCNc1nc(N)c([N+](=O)[O-])c(NCC2CCCO2)n1` (stereo not given) gave RGS16-Gao HTS 98, HSV replic up inactive and HSV replic up primary fold 0.96.
COc1ccc(CCn2c(-c3cc([N+](=O)[O-])cc([N+](=O)[O-])c3)nc3nc4ccccc4nc32)cc1 was read as GALR2 ag -0.3, PKD1 inh -12, RGS16-Gao HTS 97, HSV replic up inactive, INS promoter inh -108, INS promoter inh cell count 25 and HSV replic up primary fold 1.1.

Seven structures out of the list, sorted by formula weight, falling:
COc1ccc(CCn2c(-c3cc([N+](=O)[O-])cc([N+](=O)[O-])c3)nc3nc4ccccc4nc32)cc1 was read as GALR2 ag -0.3, PKD1 inh -12, RGS16-Gao HTS 97, HSV replic up inactive, INS promoter inh -108, INS promoter inh cell count 25 and HSV replic up primary fold 1.1.
For O=S(=O)(NCc1ccc2c(c1)OCO2)c1ccc2oc3ccccc3c2c1 the results were GALR2 ag -2.1, PKD1 inh 3, HSV replic up inactive, INS promoter inh -169, INS promoter inh cell count 82 and HSV replic up primary fold 0.79.
CC(=O)c1sc(NC(=O)c2cc(=O)c3ccccc3o2)nc1C was read as PKD1 inh -2, RGS16-Gao HTS 100, HSV replic up inactive and HSV replic up primary fold 0.94.
`COCCCNc1nc(N)c([N+](=O)[O-])c(NCC2CCCO2)n1` (stereo not given) gave RGS16-Gao HTS 98, HSV replic up inactive and HSV replic up primary fold 0.96.
For CCOC(=O)c1c(NCC2CCCO2)c2ccccc2[nH]c1=O (stereo not given) the results were GALR2 ag -1.0, PKD1 inh 10, RGS16-Gao HTS 76, HSV replic up inactive, INS promoter inh 31, INS promoter inh cell count 70 and HSV replic up primary fold 1.
For O=C1c2ccccc2NC(c2cn[nH]c2-c2ccccc2)N1O (stereo not given) the results were GALR2 ag -1.6, PKD1 inh 12, RGS16-Gao HTS 108, HSV replic up inactive, INS promoter inh 13, INS promoter inh cell count 114 and HSV replic up primary fold 0.93.
Screening COCCNC(=S)NNc1ccc(Cl)c(C(=O)O)c1 returned RGS16-Gao HTS 95, HSV replic up inactive and HSV replic up primary fold 0.99.
